Compound activity: PubChem, Broad Institute
YB-1 expr inh: YB-1 expression inhibition. U2OS, qRT-PCR YB-1 vs CDIP delta delta Cp, 16 h; hits give high values; zero = DMSO, each unit about twofold. delta delta Cp (YB-1 minus CDIP) (no concentration beside the values). 30,000 compounds, 0.37% hits. AID 434959;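 active means delta delta Cp rounded down to an integer at or above 3, about 3 SD of DMSO wells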;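 further: higher means less YB-1 transcript or more CDIP transcript relative to DMSO; stock transfer was 100 nL into about 100 µL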
MITF inhib: blocks MITF activity. AID 2240. inhibition, % (no concentration beside the values). 37,000 compounds, 0.28% hits. TRPM1 promoter luciferase, luminescence, 24 h;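 active means most replicates at 85% or more, or half of them and the mean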;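 further: human melanocyte line stably carrying TRPM1 promoter luciferase reporter; 0% = vehicle wells and 100% = a positive control; the first replicate is given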
PD-1 reverse act: activators reversing PD-1 mediated T-cell inhibition; primary human CD4 T cells, PD-L1 beads, CellTiter-Glo 96 h; activation, % (no concentration beside the values); 29,000 tested, under 10 active; AID 2316;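 active means replicate mean of 50% or more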;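 further: 0% = median vehicle wells and 100% = positive control; 100 nL library stock added to about 50 µL; numbers are from one replicate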
Shh pathway inh: Sonic Hedgehog pathway inhibition; Shh-LIGHT2 Gli-luciferase reporter, 30 h; 22,000 compounds, 2.1% hits; inhibition, % (concentration not given with the values); AID 2313;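 active means replicate mean of 65% or more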;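 further: pathway switched on by Shh-conditioned medium diluted 1 in 25 in low serum; 100 nL library stock added to about 40 µL; 0% = median of neutral wells and 100% = positive control level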
Starred values were filed as active, the others as inactive; / = no result given. Some of the compounds tested. The share of hits here may be higher or lower than overall.

no.	Compound	YB-1 expr inh	MITF inhib	PD-1 reverse act	Shh pathway inh
1	C[C@H]1CN([C@@H](C)CO)C(=O)Cc2cc(NS(=O)(=O)c3cccs3)ccc2O[C@H]1CN(C)CC1CC1	0.031	-2	2.5	-9
2	COc1ccc(NC(=O)N(C)C[C@H]2Oc3c(NC(=O)c4nc5ccccc5s4)cccc3C(=O)N([C@@H](C)CO)C[C@H]2C)cc1	-0.23	-12	-2.3	-48
3	Cc1ccc(C2=NC(C(F)(F)F)(C(F)(F)F)N=C3SCCN32)cc1	-0.51	-14	0.4	-26
4	C[C@@H]1CN([C@H](C)CO)C(=O)Cc2cc(N(C)C)ccc2O[C@@H]1CN(C)S(=O)(=O)c1ccccc1	0.0071	7	-0.7	-44
5	O=C(CC1(O)C(=O)N(Cc2cccc3ccccc23)c2ccccc21)c1ccccn1 (configuration not stated)	/	36	-7.4	/
6	C[C@H](CO)N1C[C@H](C)[C@H](CN(C)Cc2ccc(-c3ccccc3)cc2)Oc2c(NC(=O)c3cnccn3)cccc2C1=O	-0.17	-20	0.7	-11
7	COc1ccc(S(=O)(=O)Nc2cccc3c2O[C@@H](CN(C)C(=O)Nc2c(C)noc2C)[C@H](C)CN([C@@H](C)CO)C3=O)cc1	-0.081	-3	/	-61
8	Cc1ccc(S(=O)(=O)N(C)C[C@@H]2Oc3ccc(NC(=O)Cn4cnnn4)cc3CC(=O)N([C@H](C)CO)C[C@H]2C)cc1	0.43	2	1.2	11
9	O=C(O)CCSc1nc2ccccc2n1C1CCCCC1	0.15	-9	1.2	-27
10	Cc1noc(C)c1NC(=O)Nc1cccc2c1O[C@H](CN(C)C(=O)Nc1ccc(C(F)(F)F)cc1)[C@@H](C)CN([C@@H](C)CO)C2=O	0.076	-2	2.4	-45
11	COc1cc(C(=O)OC[C@@]2(O)CO[C@H](OC3C(CO)OC(Oc4cc(OC)c(OC)c(OC)c4)C(O)C3O)[C@@H]2O)cc(OC)c1O (some centres not stated)	0.037	/	/	26
12	COc1ccc(NC(=O)N(C)C[C@@H]2Oc3ccc(NC(=O)Nc4ccccc4)cc3C(=O)N([C@@H](C)CO)C[C@H]2C)cc1	0.042	-5	-0.6	6
13	Cc1noc(C)c1NC(=O)Nc1cccc2c1O[C@H](CN(C)C(=O)Nc1c(C)noc1C)[C@H](C)CN([C@H](C)CO)C2=O	-0.31	-1	3.0	18
14	Cc1noc(C)c1NC(=O)Nc1ccc2c(c1)C(=O)N([C@H](C)CO)C[C@H](C)[C@@H](CN(C)Cc1ccc(Cl)c(Cl)c1)O2	0.004	-7	0.1	/
15	C[C@@H]1CN([C@H](C)CO)C(=O)c2cccc(NC(=O)CCCCCC(=O)Nc3ccccc3N)c2O[C@H]1CN(C)C(=O)Nc1ccccc1	-0.073	1	1.5	/
16	CCOC(=O)Nc1ccc(OCc2nnc3c4ccccc4c(C)nn23)cc1	/	-61	-0.1	/
17	C[C@@H]1CCCCO[C@@H](CN(C)Cc2ccc(Cl)c(Cl)c2)[C@@H](C)CN([C@H](C)CO)C(=O)c2cc(N(C)C)ccc2O1	0.36	8	-5.7	3
18	Cc1ccc(S(=O)(=O)Nc2cccc3c2O[C@H](CN(C)CC2CCCCC2)[C@@H](C)CN([C@H](C)CO)C3=O)cc1	-0.43	-13	-2.9	-16
19	O=C1NC(=S)N(S(=O)(=O)c2cccc3cccnc23)C1Cc1ccccc1 (configuration not stated)	/	20	-1.5	/
20	C[C@@H]1CCCCO[C@H](CN(C)C(=O)Nc2cccc3ccccc23)[C@@H](C)CN([C@H](C)CO)C(=O)c2cc(N(C)C)ccc2O1	-0.016	6	-3.0	-6
21	Cc1nn(CC(O)COc2ccc3cc(Br)ccc3c2)c(C)c1Cl (configuration not stated)	/	-25	-3.1	/
22	C[C@H]1CN([C@@H](C)CO)C(=O)c2cccc(NS(C)(=O)=O)c2O[C@@H]1CN(C)Cc1ccc(Cl)c(Cl)c1	0.098	-28	-0.5	13
23	C[C@H]1CN([C@@H](C)CO)C(=O)Cc2cc(NS(=O)(=O)c3ccc(Cl)cc3)ccc2O[C@@H]1CN(C)Cc1ccccc1	0.41	44	-2.9	-26
24	C[C@@H]1CN([C@H](C)CO)C(=O)Cc2cc(NC(=O)Cc3ccccc3)ccc2O[C@H]1CN(C)C(=O)Nc1ccc(F)cc1	-0.38	-6	0.9	-37
25	COc1cc(C(C)=O)ccc1OCC(O)Cn1nc(C)cc1C (configuration not stated)	/	-21	1.4	/
26	C[C@@H]1CN([C@@H](C)CO)C(=O)c2cccc(NC(=O)c3ccncc3)c2O[C@H]1CN(C)S(=O)(=O)c1ccc(Cl)cc1	0.58	8	/	-37
27	C[C@@H]1CN([C@H](C)CO)C(=O)Cc2cc(NC(=O)Cn3cnnn3)ccc2O[C@H]1CN(C)Cc1ccc(C(=O)O)cc1	0.041	-7	/	13
28	C[C@@H]1CN([C@@H](C)CO)C(=O)c2cccc(NC(=O)c3ccc(-c4nccs4)cc3)c2O[C@H]1CN(C)Cc1ccc(Cl)c(Cl)c1	-0.15	72	-5.6	13
29	C[C@@H]1CN([C@@H](C)CO)C(=O)c2cc(NS(=O)(=O)c3ccc(Cl)cc3)ccc2O[C@@H]1CN(C)C	-0.16	9	4.2	2
30	COc1ccc(NC(=O)Nc2ccc3c(c2)C(=O)N([C@H](C)CO)C[C@@H](C)[C@@H](CN(C)S(=O)(=O)c2ccc(Cl)cc2)O3)cc1	-0.07	0	1.9	/

Next part, overlapping the part above by 3 compounds.
no.	Compound	YB-1 expr inh	MITF inhib	PD-1 reverse act	Shh pathway inh
28	C[C@@H]1CN([C@@H](C)CO)C(=O)c2cccc(NC(=O)c3ccc(-c4nccs4)cc3)c2O[C@H]1CN(C)Cc1ccc(Cl)c(Cl)c1	-0.15	72	-5.6	13
29	C[C@@H]1CN([C@@H](C)CO)C(=O)c2cc(NS(=O)(=O)c3ccc(Cl)cc3)ccc2O[C@@H]1CN(C)C	-0.16	9	4.2	2
30	COc1ccc(NC(=O)Nc2ccc3c(c2)C(=O)N([C@H](C)CO)C[C@@H](C)[C@@H](CN(C)S(=O)(=O)c2ccc(Cl)cc2)O3)cc1	-0.07	0	1.9	/
31	C[C@H](CO)N1C[C@H](C)[C@@H](CN(C)C(=O)NC2CCCCC2)Oc2c(NS(=O)(=O)c3ccc(Cl)cc3)cccc2C1=O	0.58	2	0.1	-241
32	C[C@@H]1CN([C@H](C)CO)C(=O)c2cc(NS(=O)(=O)c3ccc(F)cc3)ccc2O[C@@H]1CN(C)S(=O)(=O)c1ccccc1	0.42	-11	1.7	/
33	Cc1noc(C)c1NC(=O)N(C)C[C@H]1Oc2ccc(NS(=O)(=O)c3cccs3)cc2C(=O)N([C@@H](C)CO)C[C@@H]1C	-0.24	3	1.5	-5
34	C[C@@H]1CN([C@H](C)CO)C(=O)c2cc(NS(C)(=O)=O)ccc2O[C@@H]1CN(C)Cc1ccc(-c2ccccc2)cc1	0.35	-13	2.1	-4
35	Cc1ccc(CCC(=O)Nc2cc(Cl)cc(Cl)c2)o1	/	11	-6.9	/
36	C[C@@H]1CN([C@H](C)CO)C(=O)c2cc(NC(=O)C3CCCCC3)ccc2O[C@H]1CN(C)Cc1ccc(Oc2ccccc2)cc1	-0.0038	-10	-4.7	15
37	C[C@@H]1CN([C@H](C)CO)C(=O)Cc2cc(NC(=O)c3ccncc3)ccc2O[C@@H]1CN(C)Cc1ccc2c(c1)OCO2	-0.29	-8	0.8	-1
38	COc1ccc(NC(=O)N(C)C[C@@H]2Oc3ccc(NC(=O)Nc4ccc(F)cc4)cc3C(=O)N([C@@H](C)CO)C[C@@H]2C)cc1	-0.077	-7	-0.2	11
39	Cc1ccc(S(=O)(=O)Nc2ccc3c(c2)CC(=O)N([C@@H](C)CO)C[C@H](C)[C@H](CN(C)CC2CC2)O3)cc1	-0.15	-4	/	-3
40	COc1ccc(Cl)cc1N(CC(=O)Nc1ccc(C(F)(F)F)cc1)S(C)(=O)=O	/	22	0.1	/
41	C[C@H](CO)N1C[C@H](C)[C@@H](CN(C)C(=O)Nc2ccccc2)Oc2ccc(NC(=O)Nc3ccccc3)cc2C1=O	0.39	6	0.4	-37
42	Cc1cc(C(=O)Nc2cccc3c2O[C@H](CN(C)Cc2ccncc2)[C@@H](C)CN([C@@H](C)CO)C3=O)n(C)n1	0.18	-5	/	-28
43	C[C@@H]1CCCCO[C@@H](CN(C)C(=O)Nc2ccccc2)[C@@H](C)CN([C@H](C)CO)C(=O)c2cc(NS(=O)(=O)c3ccccc3)ccc2O1	-0.96	-8	-0.1	/
44	C[C@@H]1CN([C@H](C)CO)C(=O)c2cc(NS(=O)(=O)c3ccccc3)ccc2O[C@@H]1CN(C)C(=O)Nc1ccccc1	-0.26	1	/	-4
45	C[C@@H]1CC(=O)c2c(ccc3c2C(=O)c2cccc(O)c2C3=O)C1	0.12	-54	1.1	-10
46	O=C1/C(=C\c2ccc(F)cc2)N=C(c2ccccc2)N1Cc1ccc(F)cc1	0.32	24	-4.2	7
47	Nn1c(C(=O)N2CCCC2)nc2ccccc2c1=O	0.19	26	1.1	1
48	COc1ccc(S(=O)(=O)N(C)C[C@@H]2OCCCC[C@@H](C)Oc3ccc(NC(=O)Nc4ccc5c(c4)OCO5)cc3C(=O)N([C@H](C)CO)C[C@@H]2C)cc1	0.27	1	1.8	/
49	C[C@@H]1CN([C@@H](C)CO)C(=O)c2cc(NC(=O)Nc3ccc(F)cc3)ccc2O[C@@H]1CN(C)Cc1ccncc1	-0.38	-3	-0.1	/
50	COc1ccc(S(=O)(=O)Nc2ccc3c(c2)CC(=O)N([C@H](C)CO)C[C@@H](C)[C@@H](CN(C)S(=O)(=O)c2ccc(Cl)cc2)O3)cc1	0.12	-1	-1.0	-13
51	COc1ccc(NC(=O)Nc2ccc3c(c2)C(=O)N([C@H](C)CO)C[C@@H](C)[C@@H](CN(C)S(C)(=O)=O)O3)cc1	-0.12	4	1.5	-16
52	Cn1c(SCC(=O)c2ccc(Cl)cc2)nnc1-c1ccccc1O	/	-30	-1.9	/
53	O=c1c(O[C@@H]2OC[C@H](O)[C@H](O)[C@H]2O)c(-c2ccc(O)c(O)c2)oc2cc(O)cc(O)c12	-0.35	-3	0.4	-10
54	CC(=O)c1ccc(NC(=O)CSc2nc(O)c(-c3ccccc3)c(=O)[nH]2)cc1	/	-10	2.6	/
55	O=C(Nc1ccccc1C(=O)O)c1cccc(S(=O)(=O)Nc2cccc(C(F)(F)F)c2)c1	/	6	0.1	/
56	C[C@H]1CN([C@@H](C)CO)C(=O)Cc2cc(N(C)C)ccc2O[C@H]1CN(C)Cc1ccc(C(F)(F)F)cc1	-0.2	-7	/	-3
57	C[C@H]1CN([C@@H](C)CO)C(=O)c2cc(NC(=O)Cc3cn(C)c4ccccc34)ccc2O[C@H]1CN(C)Cc1ccc(C(F)(F)F)cc1	-0.1	51	-7.1	/
58	COc1ccc(CN(C)C[C@@H]2Oc3ccc(NC(=O)Nc4ccc5c(c4)OCO5)cc3C(=O)N([C@H](C)CO)C[C@H]2C)cc1	0.23	3	-0.4	21
59	C[C@@H]1CN([C@H](C)CO)C(=O)c2cccc(NC(=O)c3ccncc3)c2O[C@H]1CN(C)C(=O)Nc1cccc2ccccc12	-0.082	-13	3.2	5
60	C[C@@H]1CN([C@@H](C)CO)C(=O)Cc2cc(NC(=O)Nc3ccccc3)ccc2O[C@@H]1CN(C)S(=O)(=O)c1cccs1	-0.077	-13	-1.0	34

no.	Compound	YB-1 expr inh	MITF inhib	PD-1 reverse act	Shh pathway inh
61	COc1ccc(I)cc1S(=O)(=O)NCc1ccccn1	/	-22	1.5	/
62	Cc1ccc(NC(=O)CSc2nc3ccccc3o2)cc1Cl	/	-39	-2.3	/
63	CCOC(=O)c1c(CNc2cccc(C(N)=O)c2)n(C)c2cc(Br)c(OC(C)=O)cc12	0.64	-12	-1.6	12
64	CCn1c(SCC(=O)Nc2ccc(Cl)cc2C)nnc1-c1ccc(Cl)cc1	/	8	0.9	/
65	C[C@H](CO)N1C[C@H](C)[C@H](CN(C)Cc2ccc(C(F)(F)F)cc2)Oc2ccc(NS(=O)(=O)c3ccc(Cl)cc3)cc2CC1=O	0.27	-4	1.4	47
66	C[C@H](CO)N1C[C@H](C)[C@@H](CN(C)Cc2ccc(Oc3ccccc3)cc2)Oc2c(NS(=O)(=O)c3cccs3)cccc2C1=O	-0.094	-2	/	1
67	C[C@H]1CN([C@@H](C)CO)C(=O)Cc2cc(NC(=O)Cn3cnnn3)ccc2O[C@@H]1CN(C)Cc1ccc2c(c1)OCO2	0.31	-5	0.3	-50
68	C[C@@H]1CN([C@H](C)CO)C(=O)c2cccc(NC(=O)Nc3ccc(C(F)(F)F)cc3)c2O[C@@H]1CN(C)C(=O)Nc1ccc(C(F)(F)F)cc1	-0.3	20	1.5	2
69	CC(=O)CSc1nc(N(C)C)nc(N(C)C)n1	/	1	0.7	/
70	C[C@@H]1CN([C@H](C)CO)C(=O)Cc2cc(NS(=O)(=O)c3cccs3)ccc2O[C@H]1CN(C)Cc1ccc(Cl)c(Cl)c1	-0.059	25	-1.6	3
71	C=C[C@@](C)(O)CC/C=C(\C)C(=O)O[C@@H]1[C@@H]2O[C@]2(C)[C@H]2[C@H](O[C@@H]3O[C@H](CO)[C@@H](O)[C@H](O)[C@H]3O)OC=C[C@@]12O	-0.73	-16	1.7	-4
